# GIV Gai3 FP: inhibitors of GIV peptide binding to Galpha-i3, primary screen, biochemical, fluorescence polarization, FITC-GIV GBA peptide, rat Galphai3 | 90 min; hits give low values; scaled: aluminum fluoride 0%, vehicle 100% | percent of control (FP), % (test concentration not listed) | 0.42% of 210,000 active;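 active means replicate mean at 85% of control or lower, very high polarization wells dropped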;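 further: wells of about 15 µL received 100 nL stock; the first replicate is given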
# Target sequence (P08753 whole entry, looked up): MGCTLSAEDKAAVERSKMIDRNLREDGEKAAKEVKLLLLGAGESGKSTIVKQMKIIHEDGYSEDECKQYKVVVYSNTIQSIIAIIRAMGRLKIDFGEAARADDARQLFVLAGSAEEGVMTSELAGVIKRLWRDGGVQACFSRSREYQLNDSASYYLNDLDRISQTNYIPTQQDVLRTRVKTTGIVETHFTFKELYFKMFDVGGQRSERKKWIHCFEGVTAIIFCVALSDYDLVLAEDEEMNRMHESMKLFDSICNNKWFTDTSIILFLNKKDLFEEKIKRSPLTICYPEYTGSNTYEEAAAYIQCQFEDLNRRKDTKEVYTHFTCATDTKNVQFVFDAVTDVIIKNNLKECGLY
# * = called active by the depositor. This is a subset, so the mix of outcomes need not match the whole.
Compound	GIV Gai3 FP
O=C1CSC2(C(=O)N(CN3CCN(Cc4ccccc4)CC3)c3ccccc32)N1c1ccc(Br)cc1 (stereo not drawn)	110
Cc1sc2cc(C(=O)N3CCC4(CC3)OCCO4)[nH]c2c1CN1CCOCC1	100
Cc1ccc(-c2nc3ccccc3c3nnc(SC(C)C(=O)NC4CC4)n23)cc1 (stereo not drawn)	104
O=C(Nc1ccc(Cl)c(Cl)c1)c1ccc(F)c(S(=O)(=O)N2CCN(C3CCCCC3)CC2)c1	108
O=C(C(Cc1ccccc1)N1C(=O)C2CCCCC2C1=O)N1CCN(Cc2ccc3c(c2)OCO3)CC1 (stereo not drawn)	110
CCCNC(=O)Cn1cnc2sc(C(=O)Nc3nc4ccc(OC)cc4s3)c(C)c2c1=O	104
C=CC(=O)N1c2ccccc2CCc2ccc(NC(=O)OCC)cc21	108
COc1ccc(CCn2c(-c3ccc(Br)cc3)csc2=Nc2ccccc2)cc1	105
COc1ccc(-c2nc(SCc3cc(=O)c4cc(F)ccc4[nH]3)n[nH]2)cc1	111
COc1cc(C2C(N3C(=O)c4ccccc4C3=O)C(=O)N2c2cccc(C(F)(F)F)c2)cc(OC)c1OC (stereo not drawn)	110
CCN1CCN(S(=O)(=O)c2ccc(-c3cnc(C4CCC4)o3)s2)CC1	131
Cc1c(C(=O)N2CCN(Cc3ccccc3)CC2)sc2ncnc(N3CCC(C)CC3)c12	105
CCCc1noc(Cn2ccnc2)n1	102
COc1ccc(OC)c(S(=O)(=O)Nc2ccc(Sc3c(C)c(C)nc4ncnn34)cc2)c1	110
CC1CCCN(S(=O)(=O)c2cccc3nonc23)C1 (stereo not drawn)	103
Cc1sc2cc(C(=O)NCC3CC3)[nH]c2c1CN1CCCCC1	100
CC(=O)C1=NN(c2ccc(Cl)cc2)C2(S1)c1ccccc1C(c1ccc(Br)cc1)=NN2c1ccccc1 (stereo not drawn)	118
CC(=O)OCC1OC(Sc2cccc3cccnc23)C(OC(C)=O)C(OC(C)=O)C1OC(C)=O (stereo not drawn)	116
CCc1nc(SCc2noc(CCC(=O)Nc3cc(C)on3)n2)n[nH]1	110
COc1cccc(NC(=O)Nc2ccc3c(c2)N(C(=O)c2ccc(C)cc2)CC3)c1	109
CCOc1ccc(NC(=O)C2=C(C)NC(=O)NC2c2cccc(Br)c2)cc1 (stereo not drawn)	99
COc1ccc2c(c1)C(C)CC(C)(C)N2C(=O)c1sc2cc([N+](=O)[O-])ccc2c1Cl (stereo not drawn)	108
CC(C)Cn1nc2ccc(S(=O)(=O)N3CCSCC3)cn2c1=O	101
O=C(NCc1nc(-c2ccc3c(c2)ncn3C2CCCC2)no1)c1ccccc1	101
CCS(=O)(=O)N1CCCN(C(=O)C2CCC2)CC1	106
COc1ccc(/C=C2\N=C(c3cc(OC)c(OC)c(OC)c3)OC2=O)cc1OC(C)=O	104
Cc1ccc(N2C(=O)C3C4c5ccccc5C(C=Nc5ccc(O)cc5)(c5ccccc54)C3C2=O)cc1 (stereo not drawn)	105
CCN(CC)c1nc(C)nc2sc(C(=O)N3CCN(c4ccccc4)CC3)c(C)c12	104
COc1ccc(NC(=O)NC2COc3ccccc3C2)cc1 (stereo not drawn)	97
CC1(C)CC2(CCO1)N1CC3([N+](=O)[O-])CN2CC([N+](=O)[O-])(C1)C3(C)C (stereo not drawn)	109
Cc1cccc(CSc2nnc3c(S(=O)(=O)N4CCCC4)cccn23)c1	99
COc1ccc2[nH]cc(CCNC(=O)c3cc(S(=O)(=O)N4CCSCC4)ccc3Cl)c2c1	105
CC(=O)c1cccc(NC(=O)c2ccc(N3CC4CC(C3)c3cccc(=O)n3C4)c(NC(=O)/C=C/c3ccccc3)c2)c1 (stereo not drawn)	112
CCOc1ccc(NC(=O)C2CCCN(c3ncnc4c3oc3ccccc34)C2)cc1 (stereo not drawn)	108
CCOc1ccc(NC(=O)N(C)Cc2nc3cc(C(=O)NC(C)C)ccc3n2C)cc1	99
Cc1cccc(CC(Cc2nc3ccccc3[nH]2)c2nc3ccccc3[nH]2)c1 (stereo not drawn)	108
CCCS(=O)(=O)c1c(S(=O)(=O)CCC)c2c3ccccc3ccn2c1C(=O)c1ccc(C)cc1C	114
CCN1C(=O)CC(C(=O)Nc2ccc(F)cc2)SC1=Nc1cccc(C(F)(F)F)c1 (stereo not drawn)	118
O=C(Cn1cccc1-c1nnc(C2CCC2)o1)N1CCc2ccccc21	102
CCOC(=O)C1=C(C)N=c2s/c(=C/c3ccc(N4CCOCC4)o3)c(=O)n2C1c1cc(OC)ccc1OC (stereo not drawn)	113

# Six compounds from above, sorted by the value under GIV Gai3 FP, smallest number first.
mol,GIV Gai3 FP
CCOc1ccc(NC(=O)N(C)Cc2nc3cc(C(=O)NC(C)C)ccc3n2C)cc1,99
Cc1cccc(CC(Cc2nc3ccccc3[nH]2)c2nc3ccccc3[nH]2)c1 (stereo not drawn),108
CC(=O)c1cccc(NC(=O)c2ccc(N3CC4CC(C3)c3cccc(=O)n3C4)c(NC(=O)/C=C/c3ccccc3)c2)c1 (stereo not drawn),112
CCOC(=O)C1=C(C)N=c2s/c(=C/c3ccc(N4CCOCC4)o3)c(=O)n2C1c1cc(OC)ccc1OC (stereo not drawn),113
CCCS(=O)(=O)c1c(S(=O)(=O)CCC)c2c3ccccc3ccn2c1C(=O)c1ccc(C)cc1C,114
CCN1C(=O)CC(C(=O)Nc2ccc(F)cc2)SC1=Nc1cccc(C(F)(F)F)c1 (stereo not drawn),118

# Random excerpt: 5 entries already listed, in no set order.
Compound	GIV Gai3 FP
O=C(NCc1nc(-c2ccc3c(c2)ncn3C2CCCC2)no1)c1ccccc1	101
COc1ccc(NC(=O)NC2COc3ccccc3C2)cc1 (stereo not drawn)	97
CC(=O)c1cccc(NC(=O)c2ccc(N3CC4CC(C3)c3cccc(=O)n3C4)c(NC(=O)/C=C/c3ccccc3)c2)c1 (stereo not drawn)	112
CCS(=O)(=O)N1CCCN(C(=O)C2CCC2)CC1	106
CC1(C)CC2(CCO1)N1CC3([N+](=O)[O-])CN2CC([N+](=O)[O-])(C1)C3(C)C (stereo not drawn)	109

# Next compounds:
Compound	GIV Gai3 FP
CC(=O)Nc1ccc(-c2noc(C3CCCN(C(=O)c4ccccc4)C3)n2)cc1 (stereo not drawn)	109
N#C/C(=C/c1ccc(O)cc1)c1nnc2n1CCCCC2	104
CCCS(=O)(=O)c1c(S(=O)(=O)CCC)c2cc(-c3ccncc3)ccn2c1C(=O)N/N=C/c1cc(OC)c(OC)c(OC)c1	107
Cc1c(C(=O)Nc2ccc3c(c2)OCCO3)sc2ncnc(N3CCCCC3)c12	107
O=C(NCC1CCCO1)c1ccc2c(=O)n(CC3CCCO3)c(SCc3ccc([N+](=O)[O-])cc3)nc2c1 (stereo not drawn)	108
CC(=O)Nc1ccc(NS(=O)(=O)c2cc(S(=O)(=O)Nc3ccc(NC(C)=O)cc3)c3cccc4c3c2NC4=O)cc1	108
CC1=CC(C)(C)N(C(=O)CSc2nc3ccccc3[nH]2)c2ccccc21	112
CCCS(=O)(=O)N1CCN(c2ncnc3c2nnn3-c2ccccc2)CC1	96
Cc1cc2c(c(=O)o1)C1(C(=O)Nc3ccc(C)c(Br)c31)C(C#N)=C(N)O2 (stereo not drawn)	106
CCC(CC)C(=O)Nc1cccc(OCc2cc(=O)n3ccccc3n2)c1	102
O=C1CCCC2=C1C(c1ccc(O)cc1)Nc1ccc3ncccc3c12 (stereo not drawn)	118
CCOC(=O)c1c(NC(=O)C(C)Sc2nnc(CNC(=O)c3ccco3)n2C)sc2c1CCCCC2 (stereo not drawn)	106
CCN(CC)C(=O)CSc1nc2ccccc2n1C(=O)Oc1ccccc1	108
Cc1sc(C)c(S(=O)(=O)N2CCN(c3ccccn3)CC2)c1-c1cc(C(F)(F)F)on1	103
Cc1ncsc1CN1CCCC(c2nncn2C(C)C)C1 (stereo not drawn)	103
CCCS(=O)(=O)c1nc2ccc(NS(=O)(=O)c3cc(C)ccc3C)cc2s1	100
CCc1onc(C)c1C1CCCN1Cc1cc(OC)cc(OC)c1 (stereo not drawn)	106
CC1(C)SC(=S)N(CCN2CCOCC2)C1N(O)C(=O)Nc1ccccc1 (stereo not drawn)	105
CCN(CC)S(=O)(=O)c1cc(-c2nc(C(C)(C)C)cs2)cs1	106
N=C1S/C(=C\c2cn[nH]c2-c2ccc(F)cc2)C(=O)N1c1ccc(Cl)cc1	107
COc1ccc(CCNC(=O)CSc2nc3c(sc(=S)n3-c3ccccc3C)c3nc4ccccc4n23)cc1OC	118
COc1ccc(C(=O)CC2(O)C(=O)Nc3c(C)cc(C)cc32)cc1 (stereo not drawn)	100
CCc1onc(C)c1C1CCCN1C(=O)NCC(C)C (stereo not drawn)	97
COc1ccc(Br)cc1C1C(N2C(=O)c3cccc([N+](=O)[O-])c3C2=O)C(=O)N1c1cccc(Cl)c1C (stereo not drawn)	107
CC(C)(C)C(=O)[C@H]1[C@H](c2cccc(Cl)c2)C(C#N)(C#N)[C@@H]2c3ccccc3C=CN21	110
COc1cc(C=C2C(=O)N(C)C(=O)N(C)C2=O)cc(Cl)c1OCCOc1ccc(C)c(C)c1	109
Cc1ccc(C)c(Cn2cccc(C(=O)N3c4ccccc4CC3C)c2=O)c1 (stereo not drawn)	102
COc1cc(Nc2ncnc3c2cnn3-c2cccc(C)c2)cc(OC)c1OC	104
O=C1/C(=C/c2ccc(-c3ccc(Br)cc3)o2)C=C(c2ccccc2)N1c1cccc([N+](=O)[O-])c1	113
O=C(NC1CCCC1)N1CCN(C(=O)c2nsc3ccccc23)CC1	97
O=C(NC1CC1)C1CCCN(c2ccc3cc(S(=O)(=O)N4CCCC4)ccc3n2)C1 (stereo not drawn)	107
COc1ccc(-c2cn(/N=C/c3ccc(Cl)cc3Cl)c(NC(=O)Nc3cccc(OC)c3)n2)cc1	111
Cc1ccc(-n2nnnc2CNC(=O)Nc2cccc(C)c2)cc1	99
Cc1ccc(-c2nc3nc(-c4cc(C(C)(C)C)cc5c4CCC5(C)C)cn3nc2-c2ccc(C)cc2)cc1	98
Cc1ccc2c(c1)N(C(=O)CSc1nnc3c4sc(N5CCCC5)nc4ncn13)CCO2	100
CCCS(=O)(=O)c1c(S(=O)(=O)CCC)c2cc(-c3ccncc3)ccn2c1C(=O)c1ccc(C)cc1C	107
CCOc1ccc(NC(=O)CSc2nnc(NC(=O)c3cc([N+](=O)[O-])ccc3Cl)s2)cc1	109
CCOC(=O)c1ccc(N2C(=O)C3C4c5ccccc5C(C(C)=O)(c5ccccc54)C3C2=O)cc1 (stereo not drawn)	110
O=C(c1ccc(F)cc1)N1CCc2cc(CNS(=O)(=O)c3ccccc3)ccc21	111
COc1cccc(-c2nc(-c3ccc(NC(=O)c4ccc(Br)o4)cc3)no2)c1	123
CCC(Sc1nc2ccccc2c(=O)n1CC1CCC(C(=O)NCC2CCCO2)CC1)C(=O)NCc1ccco1 (stereo not drawn)	103
CC12CC(c3ccccc3O1)C(c1nnc(-c3ccccc3)o1)C(=O)N2 (stereo not drawn)	116
CCSc1nc2ccc(NS(=O)(=O)c3ccccc3)cc2s1	105
c1cc2c(cc1-c1noc(C3CCC3)n1)ncn2CCN1CCCCC1	107
O=C(Nc1ccc(F)c(Cl)c1)N1CCC(N2CCN(Cc3ccc(F)cc3)C(=O)C2=O)CC1	99
CC1(C)CC(=O)C2=C(C1)NC1=C(C(=O)CC(C)(C)C1)C2c1ccc(OCc2ccccc2)cc1	113
Cc1nc2cc(-c3noc(-c4ncoc4-c4ccccc4)n3)ccc2o1	99
Cc1ccc(-c2noc3ncnc(N4CCCCC4C)c23)cc1 (stereo not drawn)	100
COC(=O)C1=C(C)OC(N)=C(C#N)C1c1ccccc1Cl (stereo not drawn)	110
Cc1cc(C2CCCN2C(=O)c2c(F)cccc2F)on1 (stereo not drawn)	98
COc1cccc(OC)c1C(=O)Nc1ccc(SCc2nnc(-c3ccccc3)o2)cc1	99
CC(C)C(=O)N1CC(C)(C)c2cc(S(=O)(=O)NCCc3ccc(S(N)(=O)=O)cc3)ccc21	106
Cc1ccc(C23CC4CC(CC(CN5CCCCC5)(C4)C2)C3)cc1	107
COc1ccc(C2Nc3ccccc3C(=O)N2Cc2ccco2)cc1Cn1nc(C)c(Br)c1C (stereo not drawn)	104
CC1CCCN(C(=O)c2cc(CN3CCOCC3)on2)C1 (stereo not drawn)	108
Cc1ccc(S(=O)(=O)N2CCC3(CC2)NCCN=C3NCc2ccccc2F)c(C)c1	104

# Continuation:
Compound	GIV Gai3 FP
COc1ccc2c(c1)C(=NNC(=O)c1ccccn1)c1cc(OC)ccc1-2	111
COc1ccc(C2C(C#N)=C(N)N(c3ccccc3F)C3=C2C(=O)CC(C)(C)C3)cc1OC (stereo not drawn)	119
COc1ccc(N2C(N)=C(C#N)C(c3ccc(Br)s3)C3=C2CC(C)(C)CC3=O)cc1 (stereo not drawn)	125
Cc1cc(NC(=O)/C(=C/c2cccc([N+](=O)[O-])c2)NC(=O)c2ccccc2Br)ccc1Br	111
CC(C)(C)NC(=O)Nc1nnc(SCC(=O)NC2CCCC2)s1	100
Cc1ccc(-c2nc(C=Nc3ccc(C(=O)N(C)c4ccccc4)cc3)c(O)o2)cc1	116
CCOc1ccc(C2=NN3C(C2)c2cccc(OCC)c2OC3c2ccc(OC)cc2)cc1 (stereo not drawn)	110
O=C(c1cc2ccccc2[nH]1)N1CCC(NS(=O)(=O)c2ccc(Cl)cc2)CC1	102
CCOc1ccc2nc(NC3=NC(c4ccc(OC)cc4)CC(=O)N3)nc(C)c2c1 (stereo not drawn)	106
Fc1ccc(Nc2nc(NC3CCCC3)nc3c2cnn3-c2ccccc2)cc1	102
N#CC1=C(N)OC(c2ccccc2)=C(n2cnc([N+](=O)[O-])c2)C1c1cccnc1 (stereo not drawn)	127
O=C(CSc1nc2ccc(N3C(=O)c4ccccc4C3=O)cc2s1)NCC1CCCO1 (stereo not drawn)	116

# Screening data: PubChem, ICCB-Longwood Screening Facility, Harvard Medical School
